RE007 growth inh: less growth of the S. pombe RE007 Vpr strain; actives 0.21% (n = 360,000); S. pombe RE007 Vpr strain, BacTiter-Glo ATP luminescence, 24 h; control for the full effect not named in the record; AID 651644; Potency, µM (top dose mostly 92.2 µM), for the others: at the top dose activity change, negative = less growth; active = well fitted falling curve with a large enough effect; inconclusive = small, poorly fitted or top-dose-only effect; inactive = no such curve, though single readings can be large or run the other way;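 also: % is scaled to controls: 0 for no effect and ±100 for the full control effect; nearly all actives have a fitted effect of over 50% in size; the assay follows cell death caused by Vpr and the record does not say whether a fall means rescue or toxicity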
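Fission yeast strain RE007, carrying one chromosomally integrated HIV-1 vpr copy, was seeded at OD 0.01 in PMG+AL medium with 23 nL pinned compound. After 24 h at 30 °C and 99% humidity, viability was read by BacTiter-Glo luminescence.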
NS1 function inh: blocks influenza NS1 protein function. actives 0.4% (n = 270,000). Potency, µM (top dose mostly 46.1 µM), without a hit: top-dose activity, positive = more growth. S. cerevisiae slowed by influenza A NS1, growth recovery by OD600; active means well fitted rising curve with a large enough effect; inconclusive means small, poorly fitted or top-dose-only effect; inactive means no such curve, though single readings can be large or run the other way; also: nearly all actives have a fitted effect of over 50% in size
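Growth recovery, yeast-based: influenza A NS1 expressed in S. cerevisiae causes slow growth, and suppressors are detected by OD600. The parent strain without NS1 is used as positive control.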
Cruzain noTriton: inhibitors of Trypanosoma cruzi cruzain without detergent; Potency, µM, for inactives: max response, negative = inhibition, most hits filed as inhibitors; actives 2.3% (n = 200,000); AID 1476; purified cruzain, Z-FR-AMC fluorescence, no detergent;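 also: plate controls were enzyme without inhibitor for no effect and buffer without enzyme for full effect; nearly all actives have a fitted effect of over 40% in size; top concentration of the series not given in the record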
Target sequence (P25779 123-467 limits assumed): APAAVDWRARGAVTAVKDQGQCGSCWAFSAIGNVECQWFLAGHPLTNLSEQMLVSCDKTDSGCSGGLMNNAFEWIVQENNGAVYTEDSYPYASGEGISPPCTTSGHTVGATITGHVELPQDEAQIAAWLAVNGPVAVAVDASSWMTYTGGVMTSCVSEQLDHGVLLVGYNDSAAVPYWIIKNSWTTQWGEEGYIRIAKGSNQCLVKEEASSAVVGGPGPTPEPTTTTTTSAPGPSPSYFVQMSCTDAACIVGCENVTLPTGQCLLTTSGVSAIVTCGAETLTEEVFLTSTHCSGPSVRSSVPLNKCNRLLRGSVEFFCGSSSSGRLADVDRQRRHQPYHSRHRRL
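Detergent-free condition (0.00005% Triton X-100) in acetate buffer pH 5.5 with DTT. 1.5 nM enzyme and compound were pre-mixed 15 min, then 2 uM Z-FR-AMC substrate added; reaction progress from fluorescence change between first and third reads (60 s).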
MARV entry inh: Marburg virus entry inhibition; Marburg virus pseudotyped entry inhibition, cell reporter; control for the full effect not named in the record; about a third of the inactives were read at about 46 µM; Potency, µM (top dose mostly 37.8 µM), for inactives: at the top dose activity change, negative = inhibition, most hits filed as inhibitors; actives 1.8% (n = 300,000); active = well fitted inhibition curve with a large enough effect; inconclusive = small, poorly fitted or top-dose-only effect, or effect the other way; inactive = flat fitted curve, though single readings scatter; tested in HEK293 cells; about a fifth of its hits are not listed in these tables; also: % is scaled to controls: 0 for no effect and ±100 for the full control effect; luciferase read-out
2A StopGo: lowers the luciferase signal of an FMDV 2A StopGo reporter. human cells with a luciferase reporter of 2A StopGo recoding; control for the full effect not named in the record. Potency, µM (top dose mostly 57.9 µM), inactives show at the highest dose signal change, negative = less light. actives 1.2% (n = 410,000); active = well fitted falling curve with a large enough effect; inconclusive = small, poorly fitted or top-dose-only effect; inactive = no such curve, though single readings can be large or run the other way; tested in HEK293T cells; also: % is scaled to controls: 0 for no effect and ±100 for the full control effect; nearly all actives have a fitted effect of over 45% in size; luciferase light after 4 h
Cruzain inh Det: cruzain (T. cruzi) inhibition with detergent; purified cruzain, Z-FR-AMC fluorescence, 0.01% Triton; Potency, µM, for inactives: max response, negative = inhibition, hits mostly inhibitors; actives 0.43% (n = 200,000);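 also: plate controls were neutral wells for no effect and buffer without enzyme for full effect; nearly all actives have a fitted effect of over 40% in size; top concentration of the series not given in the record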
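Enzyme 1.5 nM, Z-FR-AMC 2 uM, NaOAc 100 mM pH 5.5, DTT 5 mM, Triton X-100 0.01%; 15 min RT compound preincubation; kinetic ex360/em450, 60 s delta.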
SARS PLP yeast: SARS-CoV PLP inhibition in yeast; S. cerevisiae expressing SARS-CoV PLpro, growth rescue; control for the full effect not named in the record; Potency, µM (titrated, usually from 32.9 µM), for the others: at the highest dose activity, positive = growth rescue; actives 0.19% (n = 330,000); AID 485353; active means well fitted rising curve with a large enough effect; inconclusive means small, poorly fitted or top-dose-only effect; inactive means no such curve, though single readings can be large or run the other way; also: 0% is about no effect; nearly all actives have a fitted effect of over 55% in size; growth read by luminescence after 48 h
LASV entry inh: Lassa virus entry inhibition. Lassa virus pseudotype entry inhibition, cell reporter; control for the full effect not named in the record. Potency, µM (series often up to 37.9 µM), for the others: at the top dose activity change, negative = inhibition, most hits filed as inhibitors. actives 1.2% (n = 300,000). AID 540256; active means well fitted inhibition curve with a large enough effect; inconclusive means small, poorly fitted or top-dose-only effect, or effect the other way; inactive means flat fitted curve, though single readings scatter; tested in HEK293 cells; also: % is scaled to controls: 0 for no effect and ±100 for the full control effect; nearly all actives have a fitted effect of over 50% in size; luciferase read-out
* = called active by the depositor; ? = inconclusive; · = no result given; [ ] = dose if it differs, or a comment. Unless noted, calls follow the shape of the dose curve; as a rule, active = well fitted curve in the direction sought with a large enough effect; inconclusive = small, poorly fitted or top-dose-only effect, or another doubt; inactive = no such curve, though single readings can be large; an effect the other way counts as inactive or inconclusive. Potency is read from the fitted curve at half-maximal effect.

smiles	MARV entry inh	2A StopGo	Cruzain inh Det	SARS PLP yeast	NS1 function inh	Cruzain noTriton	LASV entry inh	RE007 growth inh
O=C(CSCc1nc2ccccc2[nH]1)Nc1ccc(Oc2ccccc2)cc1	-38%	-18%	-3.0%	-9%	-53%	2%	-11%	-5%
Cc1ccc2cc(CN(Cc3ccco3)C(=O)c3cccs3)c(=O)[nH]c2c1	1.3µM*	-12%	-2.2%	1%	18%	-14%	?	1%
COC(=O)c1c(C(=O)OC)c(-c2ccccc2)n2c1CCC2	-18%	-9%	-8.1%	-2%	-14%	3%	11%	4%
O=C(CSc1ccc2nnc(-c3ccccc3)n2n1)N1CCCCC1	8%[46.1 µM]	-3%	·	·	0%	·	-19%	8%
CC(=O)Nc1ccc(SCC(=O)Nc2ccc3c(c2)OCCO3)cc1	2%[46.1 µM]	5%	·	1%	·	·	-20%[46.1 µM]	-6%
Cn1c(O)c(/C=C2\C=Nc3ccccc32)c(=O)n(C)c1=O	·	-8%	·	-7%	-1%	·	·	-6%
c1ccc(C[n+]2ccc3ccccc3c2)cc1	-15%	-27%	·	·	·	·	-4%	-25%
O=[N+]([O-])c1cccnc1Sc1ccc(Cl)cc1	?	-19%	·	-2%	3%	·	12%[46.1 µM]	2%
Cc1nnsc1C(=O)Nc1ccc(Cl)cc1Cl	?	-9%	1.7%	-5%	-6%	-4%	4%	-10%
Fc1ccccc1NC(=S)NC1CCCC1	·	21%	·	3%	7%	·	·	7%
CCCC(c1nnnn1C(C)(C)C)N1CCN(Cc2ccccc2)CC1 (stereo not drawn)	?	-16%	·	0%	-4%	·	-25%	-2%
COc1cc(NC(=O)Cn2c(=O)n(-c3cccc(C)c3)c(=O)c3c(C)c(C)sc32)cc(OC)c1	?	-5%	-1.6%	7%	-2%	-14%	-4%	1%
COc1cccc2sc(N(Cc3cccnc3)C(=O)c3ccc(S(=O)(=O)N(C)C)cc3)nc12	·	-25%	-3.2%	·	·	?	-8%[46.1 µM]	·
O=C(O)COc1ccccc1/C=C1\SC(=S)N(/N=C/c2ccccc2O)C1=O	3%	14%	28µM*	-12%	0%	?	-3%	2%
O=C(CSc1nnnn1-c1ccc(O)cc1)c1cc2ccccc2o1	·	-8%	·	1%	-2%	·	·	4%
CC(C)NC(=O)NC(=O)COC(=O)CCOc1ccccc1	3%	-16%	1.6%	-9%	-1%	?	-2%	-9%
CCCCN(C(=O)CCC(=O)Nc1cc(C)on1)C(C(=O)NC1CCCC1)c1ccc(OCC)cc1 (stereo not drawn)	?	-1%	·	2%	4%	·	?	26%
O=P(Cc1cc(Br)cc(Br)c1OCCO)(c1ccccc1)c1ccccc1	?	0%	·	1%	-4%	·	?	6%
Cc1nc2cc(-c3ccccc3)nn2c(C)c1CCC(=O)N1CCN(c2ccccn2)CC1	0%	·	-5.0%	-6%	4%	?	·	·
CC(C)CC1CCCCC1OC(=O)C[N+]1(C)CCCCC1 (stereo not drawn)	7%[46.1 µM]	-14%	·	1%	·	·	-2%[46.1 µM]	2%

Molecules shown so far with an NH in an aromatic ring (two):
smiles	MARV entry inh	2A StopGo	Cruzain inh Det	SARS PLP yeast	NS1 function inh	Cruzain noTriton	LASV entry inh	RE007 growth inh
O=C(CSCc1nc2ccccc2[nH]1)Nc1ccc(Oc2ccccc2)cc1	-38%	-18%	-3.0%	-9%	-53%	2%	-11%	-5%
Cc1ccc2cc(CN(Cc3ccco3)C(=O)c3cccs3)c(=O)[nH]c2c1	1.3µM*	-12%	-2.2%	1%	18%	-14%	?	1%

3 compounds out of the list, sorted by SMILES length, low to high.
smiles	MARV entry inh	2A StopGo	Cruzain inh Det	SARS PLP yeast	NS1 function inh	Cruzain noTriton	LASV entry inh	RE007 growth inh
Fc1ccccc1NC(=S)NC1CCCC1	·	21%	·	3%	7%	·	·	7%
CC(=O)Nc1ccc(SCC(=O)Nc2ccc3c(c2)OCCO3)cc1	2%[46.1 µM]	5%	·	1%	·	·	-20%[46.1 µM]	-6%
Cc1nc2cc(-c3ccccc3)nn2c(C)c1CCC(=O)N1CCN(c2ccccn2)CC1	0%	·	-5.0%	-6%	4%	?	·	·

Following part:
smiles	MARV entry inh	2A StopGo	Cruzain inh Det	SARS PLP yeast	NS1 function inh	Cruzain noTriton	LASV entry inh	RE007 growth inh
COc1cccc(NC(=O)CCN2CCN(CCO)CC2)c1	·	-16%	0.0%	·	·	7%	6%[46.1 µM]	·
C/C(=N/NC(=O)c1ccc(C)nc1)c1ccc2c(c1)CCCC2	-25%[46.1 µM]	0%	·	6%	·	·	?	6%
Cc1ccc(C2=CSC3=NCCN23)c(C)c1	-2%	-17%	2.9%	3%	5%	-10%	0%	-18%
CCCn1c(NCc2c[nH]c3ccccc23)nc2ccccc21	?	13%	0.8%	-4%	29%	10%	-2%	-10%
CCN(CC)S(=O)(=O)c1ccc2c(c1)N(CC(=O)N1CCN(c3ccc(F)cc3)CC1)C(=O)CO2	·	-17%	-3.1%	-2%	·	?	3%[46.1 µM]	·
CCC(OC(=O)c1nsc(Cl)c1Cl)C(=O)NCc1ccco1 (stereo not drawn)	-1%	-11%	0.6%	-6%	-8%	-3%	1%	-1%
CCC(=O)NC(O)C(=O)c1ccc(C)cc1 (stereo not drawn)	12%	7%	-2.5%	3%	5%	-14%	17%	-7%
Cc1ccc(C(=O)NC(C)c2ccncc2)o1 (stereo not drawn)	12%[46.1 µM]	-10%	·	-6%	-3%	·	22%[46.1 µM]	0%
O=C1CC(c2ccccc2)CC(O)=C1C=NCC1CCCO1 (stereo not drawn)	1%	-8%	0.9%	-6%	-12%	-5%	-2%	3%
COc1ccc(CCN2CC(C(=O)NCc3nc4ccccc4n3C)CCC2=O)cc1 (stereo not drawn)	26%	-1%	·	9%	2%	·	8%	-5%
O=C(CNC(=O)c1ccccc1)OCc1nnc(-c2ccc(Cl)cc2)o1	5%[46.1 µM]	14%	·	-4%	-6%	·	6%	1%
Cc1cccc(COC[C@H](Cc2ccccc2)N2CCN(C(=O)c3cccc(Cl)c3)CCC2=O)c1	·	-17%	2.6%	·	·	23%	·	12%
COc1ccc(C(=O)COC(=O)c2c(C)noc2C)cc1Cl	7%[46.1 µM]	12%	·	0%	·	·	3%[46.1 µM]	20%
O=C(O)c1cccc(S(=O)(=O)NCC2CCCO2)c1 (stereo not drawn)	?	-4%	4.3%	4%	5%	-3%	-5%	12%
CSc1ccc(CNCc2ccco2)cc1	10%	-2%	·	1%	-10%	·	?	5%
O=C(CCN1CCOCC1)N/N=C/c1cc(Br)cc(Br)c1O	?	-2%	·	-4%	-74%	·	?	?
O=C(Nc1ccc(-c2nc3cc(NC(=O)c4ccc(Cl)cc4)ccc3o2)cc1)c1ccc(Cl)cc1	·	-3%	1.2%	·	·	-1%	-3%[46.1 µM]	·
CC(=O)OCC(=O)C12OC(C)(C)OC1CC1C3CC=C4CC(O)CCC4(C)C3CCC12C (stereo not drawn)	?	-28%	·	·	·	·	9%[46.1 µM]	5%
O=C(O)c1cc2ncc(CCO)cn2n1	-9%[46.1 µM]	-20%	·	-1%	·	·	22%[46.1 µM]	5%
Cc1ccc(C(=O)NC2CCN(CC(=O)Nc3c(C)cc(C)cc3C)CC2)cc1	-15%	-15%	·	-1%	6%	·	7%	-10%
O=C(CN1CCN(S(=O)(=O)c2ccc(Cl)cc2)CC1)NC(=O)NC1CCCCC1	1%	?	-3.1%	-5%	-5%	22%	-31%	15%
Cc1cc(=O)oc2c(C)c(OCC(=O)NC3CCN(Cc4ccccc4)CC3)ccc12	?	-11%	·	0%	-13%	·	?	-5%
O=C(COc1ccccc1F)Nc1ccc2c(c1)OCCO2	?	1%	·	-1%	-6%	·	?	115%
COc1ccccc1Oc1nnnn1-c1ccc(C(N)=O)cc1	1%	3%	-1.1%	17%	-11%	1%	16%	-4%
Cc1cc(C)nc(NC(=O)COc2cc(Cl)cc(Cl)c2)n1	1%[46.1 µM]	0%	6.8%	12%	9%	-15%	1%	7%
COc1ccc(OC)c(NC(=O)COC(=O)CCc2ccc(S(=O)(=O)N3CCOCC3)cc2)c1	4%	-17%	·	1%	·	·	2%	-14%
CCOC(=O)c1c(NC(=O)COC(=O)c2nc(Cl)ccc2Cl)sc(C(=O)NC)c1C	1%[46.1 µM]	-10%	·	-1%	·	·	11%	-16%
O=C(c1cccc(Oc2ccccc2)c1)N1CCOCC1	·	-9%	·	-9%	-4%	·	·	4%
COc1cc(/C=N\Nc2ccc([N+](=O)[O-])cc2)ccc1OCC(=O)Nc1ccc(C)c(C)c1	-10%	-26%	0.4%	0%	?	4µM*	-24%	-5%
O=C(Nc1ccccc1)C1CC=CCC1C(=O)OCC1CCCO1 (stereo not drawn)	17%	9%	7.3%	0%	-2%	-5%	?	12%
COc1ccc(CC(C)N2CCN(Cc3ccccc3)CC2)c(OC)c1 (stereo not drawn)	?	-8%	-2.2%	2%	-4%	12%	?	-16%
COc1ccc(/C=N\NC(=O)c2cccc(Br)c2)c(OC)c1	?	2%	·	13%	0%	·	?	5%
O=C(N/N=C/c1cccc(Oc2ccccc2)c1)c1cc[n+]([O-])cc1	1%[46.1 µM]	-4%	·	-4%	·	·	24%[46.1 µM]	2%
CCCOc1ccc(/C=N/NC(=O)C2CC2)c(OCCC)c1	-10%[46.1 µM]	18%	·	21%	-9%	·	-24%[46.1 µM]	-14%
CN(Cc1c(F)cccc1Cl)S(=O)(=O)c1cccs1	-3%[46.1 µM]	29%	·	-2%	10%	·	-1%	9%
CCOC(=O)Cc1nnc(NC(=O)CCc2ccccc2)s1	-16%[46.1 µM]	4%	·	0%	-1%	·	-28%[46.1 µM]	4%
CCn1c(SCc2nnc(-c3ccccc3)o2)nc2c1c(=O)n(C)c(=O)n2C	·	·	6.5%	7%	-4%	2%	·	·
CCc1cc(=O)oc2cc(OCC(=O)N3CC[C@@]4(O)CCCC[C@H]4C3)ccc12	·	-9%	·	-2%	-1%	·	·	-1%

Assay outcomes from PubChem.
